Screening data deposited in PubChem BioAssay by National Center for Advancing Translational Sciences (NCATS).
Rango release inh: qHTS Assay for Inhibitors of RanGTP induced Rango (Ran-regulated importin-beta cargo) - Importin beta complex dissociation; Snurportin-1 (Homo sapiens) + GTP-binding nuclear protein Ran (Homo sapiens) + Importin …; Biochemical FRET Rango-importin beta, RanGTP-induced dissociation; Potency, µM (top dose mostly 46.1 µM), for inactives: top-dose activity change, negative = inhibition; actives 0.071% (n = 340,000); AID 540253, 2011; active means falling FRET ratio curve, often poorly fitted, with flat reads before Ran was added; inconclusive means other falling curves, or compound fluorescence or quenching; inactive means flat or rising ratio curve;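 note: potency is the fitted concentration of half-maximal effect; % of control where 0% means no effect; nearly all actives have a fitted effect of over 45% in size; -100% = wells without RanGTP and RCC1; the record marks most hits as doubtful in a second field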
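FRET read at 45 min, room temperature: inhibitors block the CFP/YFP signal rise when RanGTP (0.6 uM Ran, 2 mM GTP, 0.2 uM RCC1) frees Rango (0.1 uM) from importin beta (0.25 uM). Pre-read after 5 min compound exposure flags interference.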
Rango-impB inh: qHTS Assay for Inhibitors of Rango (Ran-regulated importin-beta cargo) - Importin beta complex formation; actives 0.031% (n = 340,000); Rango CFP/YFP FRET sensor + importin beta, 45 min; Potency, µM (series often up to 92.2 µM), for inactives: at the top dose inhibition of complex formation; active = rising FRET ratio curve, often small or poorly fitted; inconclusive = mostly compound fluorescence or quenching in the first reads; inactive = flat curves in all reads;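 note: potency is the fitted concentration of half-maximal effect; 0% = DMSO wells and 100% = buffer wells lacking importin beta; nearly all actives have a fitted effect of over 15% in size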
Target sequence (Q14974 whole entry, looked up): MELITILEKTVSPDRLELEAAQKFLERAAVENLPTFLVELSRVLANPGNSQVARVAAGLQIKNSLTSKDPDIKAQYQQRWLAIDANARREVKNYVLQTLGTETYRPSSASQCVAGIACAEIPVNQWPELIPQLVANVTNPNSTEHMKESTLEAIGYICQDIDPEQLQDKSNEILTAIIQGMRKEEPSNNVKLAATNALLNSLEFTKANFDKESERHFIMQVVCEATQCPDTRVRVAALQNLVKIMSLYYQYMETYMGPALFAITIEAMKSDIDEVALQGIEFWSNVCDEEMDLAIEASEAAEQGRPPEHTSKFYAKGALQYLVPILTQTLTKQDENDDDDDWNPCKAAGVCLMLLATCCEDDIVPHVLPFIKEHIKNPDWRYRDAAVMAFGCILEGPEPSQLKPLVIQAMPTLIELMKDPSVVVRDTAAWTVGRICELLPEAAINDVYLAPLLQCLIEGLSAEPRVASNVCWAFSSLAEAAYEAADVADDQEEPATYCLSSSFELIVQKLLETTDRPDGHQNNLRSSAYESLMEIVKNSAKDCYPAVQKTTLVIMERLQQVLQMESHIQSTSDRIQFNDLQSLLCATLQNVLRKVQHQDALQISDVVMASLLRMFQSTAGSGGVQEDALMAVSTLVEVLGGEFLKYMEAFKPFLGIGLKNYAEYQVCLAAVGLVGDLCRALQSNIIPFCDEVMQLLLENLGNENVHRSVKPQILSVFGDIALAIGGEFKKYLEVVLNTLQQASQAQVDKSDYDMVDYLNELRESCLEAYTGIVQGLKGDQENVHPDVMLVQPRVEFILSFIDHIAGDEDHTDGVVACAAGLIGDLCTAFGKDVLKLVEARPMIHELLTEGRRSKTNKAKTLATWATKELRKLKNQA
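Inhibition scored from the CFP 486 nm/YFP 530 nm FRET ratio 45 min after adding 0.125 microM importin beta to 50 nM Rango biosensor preincubated 5 min with compound (room temperature, PBS with DTT, Tween-20, BSA). No-importin wells as positive control.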
GLA inh pH 4.5: qHTS Assay for Inhibitors of Human alpha-Galactosidase at pH 4.5 | Alpha-galactosidase A (Homo sapiens), P06280 | purified enzyme, 4-MU-alpha-Gal fluorescence, pH 4.5 | activity change, negative = inhibition, % at 105 µM | 230,000 tested, under 10 active | AID 1467, 2008; inconclusive = small, poorly fitted or top-dose-only inhibition, or a rising curve; inactive = flat fitted curve, though single readings scatter; no compound was filed as active;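 note: 0% = full activity with enzyme and -100% = basal without enzyme; dose as in the result columns while the protocol names 77 µM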
miR-21 reporter: qHTS Assay for Modulators of miRNAs and/orActivators of miR-21; HeLa miR-21 FLuc reporter, luciferase, 48 h; Potency, µM (top dose mostly 38.3 µM), for inactives: at the top dose reporter change, positive = more light; 340,000 tested, under 10 active; AID 2288, 2010; active = well fitted rising curve with a large enough effect; inconclusive = small, poorly fitted or top-dose-only effect; inactive = no such curve, though single readings can be large or run the other way;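 note: % of control where 0% means no effect; miR-21 action dims this reporter so a rising signal means less miR-21 action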
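Using DMEM plus 10% FBS, HeLa miR-21-FLuc cells are incubated with test compounds (final up to about 40uM) for 48 hours; firefly luciferase signal is then imaged following reagent-mediated lysis.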
An asterisk follows results filed as active; ? = inconclusive; . = no result given; & = joins results of further samples. Some of the compounds tested; count on the stated rates, not on these rows.

SMILES | Rango release inh | Rango-impB inh | GLA inh pH 4.5 | miR-21 reporter
Fc1ccc(NC(=S)Nc2ccc(Br)cc2)cc1 | -9% | -0.5% | 13 | 23%
O=C(O)c1ccccc1SC1CC(=O)N(C2CCCCC2)C1=O (stereo unspecified) | -12% | -4.0% | 5 | -10%
O=C(C1CCCN1C(=O)c1cccs1)N1CCN(Cc2ccc3c(c2)OCO3)CC1 (stereo unspecified) | -6% | -0.7% | -6 | 0%
O=C(c1ccccn1)C1CCCN(Cc2cn[nH]c2-c2cc3ccccc3o2)C1 (stereo unspecified) | 25% | 5.8% | -17 | 0%
O=C(COC(=O)c1ccc(Br)o1)NCc1ccco1 | 7% | -3.9% | . | .
CCOC(=O)c1c(C)oc2c1c(C=NCCO)c(O)c1ccccc12 | 26% | 4.5% | 4 | 27%
COCc1ccc(CN2CCC(CO)(CC3CCCCO3)CC2)o1 (stereo unspecified) | 7% | 1.4% | 0 | 1%
CC(C)(C)OC(=O)C[C@H]1C/C=C\C[C@H](CC(=O)NCCO)C(=O)NC[C@@H](c2ccccc2)OC1=O | -6% | ? | . | .
Cc1ccc(C)c(S(=O)(=O)N/N=C/c2ccc(N3CCOCC3)cc2)c1 | 7% | 1.6% | 1 | -7%
COc1ccc(C/C(N)=N/OC(=O)c2ccco2)cc1OC | -19% | 1.0% | 1 | -17%
CSc1nc(Sc2ccc(Cl)cc2)c2ccccc2n1 | -11% | -0.8% | -25 | -1%
COc1ccc(C(O)P(=O)(OC(C)C)c2ccc(N(C)C)cc2)c(OC)c1 (stereo unspecified) | 9% | -1.8% | . | -2%
Cc1ccc(C(=O)O)cc1NC(=O)C1CCCN1S(=O)(=O)c1cccc2nsnc12 (stereo unspecified) | 0% | 2.9% | 5 | 3%
Cc1cccc(/C=C2/S/C(=N/N=C3\CC4CCC3(C)C4(C)C)NC2=O)c1 (stereo unspecified) | 28% | 6.0% | -6 | -2%
Clc1ccc(-c2nsc(N3CCOCC3)n2)c(Cl)c1 | -18% | -2.5% | . | -63%
CCC1(C(=O)c2ccccc2)C(c2ccc([N+](=O)[O-])cc2)C1(C(=O)OC)C(=O)OC (stereo unspecified) | 2% | 1.4% | -20 | 7%
Cc1c2cnn(-c3ccccc3)c(=O)c2c(C)n1CCCC(=O)N1CCN(C2CCCCC2)CC1 | 7% | -0.9% | -7 | 1%
O=C(NCC1CCCO1)c1ccccc1-c1nc(-c2ccc(Cl)cc2)no1 (stereo unspecified) | 9% | 0.1% | 5 | 1%
O=C1CCC/C(=N/NC(=O)c2ccc(CN3c4cccc5cccc(c45)S3(=O)=O)cc2)C1 | -10% | ? | -3 | -12%
Cc1nnn(C23CC4CC(CC(CC(=O)Nc5ccc(C)c(Cl)c5)(C4)C2)C3)n1 | -19% | -0.3% | -9 | 2%
Cc1ccccc1N(C(=O)Cn1nnc2ccccc21)C(C(=O)NCc1ccco1)c1ccncc1 (stereo unspecified) | 1% | -3.1% | -10 | -4%
COC(=O)c1ccccc1NC(=O)C12CC3CC(C1)CC(n1cnc(Cl)n1)(C3)C2 | 8% | 2.5% | -4 | -6%
Cc1onc(-c2c(F)cccc2Cl)c1C(=O)NCc1ccccc1 | 23% | 6.0% | . | -7%
Cc1ccc(/C=N/NC(=O)c2ccccn2)o1 | ? | ? | 4 | -54%
Cc1nc(N/N=C/c2ccccc2)nc(N(C)c2ccccc2)c1[N+](=O)[O-] | 2% | 3.9% | 8 | -3%
CC(c1cccs1)N(Cc1ccco1)C(=S)Nc1ccc(F)c(Cl)c1 (stereo unspecified) | 7% | -2.5% | 2 | 23%
Cc1cc(NC(=O)COC(=O)COc2cccc3c2OC(C)(C)C3)no1 | -3% | 3.1% | 0 | -1%
O=C(CN1CCN(C(=O)c2ccccc2)CC1)Nc1cccc(S(=O)(=O)N2CCCC2)c1 | ? | -1.4% | . | .
Cc1ccc(C)c(N=Cc2c(O)c3ccccc3oc2=O)c1 | -17% | ? | . | -2%
CC(=O)c1cccc(S(=O)(=O)N(CCCO)Cc2cc3ccc(C)cc3[nH]c2=O)c1 | -10% | -1.4% | 4 | -9%
N#CN1CCC(NS(=O)(=O)c2ccc(C(F)(F)F)cc2)C1 (stereo unspecified) | -6% | -4.6% | . | .
CC(=O)Nc1ccc(Nc2nc(C)c([N+](=O)[O-])c(Nc3ccc(NC(C)=O)cc3)n2)cc1 | 12% | 3.2% | -1 | 2%
Nc1cc(N)nc(SCCN2CCCCC2)n1 | -6% | 0.3% | 17 | -3%
CC(C)[C@H](NC(=O)[C@@H]1CSCN1C(=O)OC(C)(C)C)C(=O)NCC1CCC(C(=O)O)CC1 (stereo partly specified) | 8% | 1.6% | 2&-2 | 1%&-5%
CC1=C(C(=O)Nc2ccccc2C)C(c2ccc(C)o2)n2c(s/c(=C/c3ccccc3)c2=O)=N1 (stereo unspecified) | -25% | 1.1% | -15 | -5%
Cc1cccc(C)c1NC(=S)NC1CCCCC1 | 18% | -7.9% | -2 | 0%
Cn1c(C(=O)O)cnc1Sc1ncc(C(F)(F)F)cc1Cl | 4% | 3.1% | 2 | -6%
COC(=O)[C@H](CCSC)NC(=O)Nc1ccc(C)c(C)c1 | -8% | -1.5% | -2 | -6%
CCOC(=O)c1cnn(-c2ccc(Cl)cc2)c1C1CCN(C(=O)OC(C)(C)C)CC1 | 17% | 0.2% | -9 | 1%
O=c1c2ccccc2nc(SCc2ccccc2)n1Cc1ccco1 | 13% | -4.2% | -16 | -7%
Nc1c(-c2ccc(Cl)cc2)cnn1-c1cccc([N+](=O)[O-])c1 | 2% | -2.2% | 0 | -35%
COc1cc(C(=S)N2CCOCC2)cc(OC)c1OC(=O)c1ccccc1[N+](=O)[O-] | 6% | 0.9% | . | -2%
CC(=O)Nc1nc(C)c(Oc2ccc(C)cc2)c(=O)[nH]1 | -25% | 0.2% | 12 | 4%
COc1cc(C2C3=C(COC3=O)Oc3cc4c(cc32)OCO4)cc(OC)c1OC(C)=O (stereo unspecified) | -11% | -1.6% | . | .
CCOc1ccc(S(=O)(=O)N2CCCCC2)cc1NC(=O)c1ccccc1 | 0% | -2.4% | . | .
O=C(N/N=C1\C2CN3CCN(C2)CC1(c1ccccc1)C3)c1ccc(F)cc1 | -13% | 0.8% | 5 | -9%
COc1ccc(CN(CC2CCC(C(=O)O)CC2)C(=S)Nc2cc(C)cc(C)c2)cc1 (stereo unspecified) | -1% | -2.0% | -5 | -16%
Cc1ccccc1C(=O)NCC(=O)OC(C)C(=O)NCc1ccco1 (stereo unspecified) | 3% | 0.3% | . | .
CCC(=O)N/N=C/c1ccc(OS(=O)(=O)c2ccccc2)cc1 | 28% | 0.8% | -9 | -25%
Cc1nn(C(C)C(=O)N2CCCC2)c(=O)c2nn(-c3ccccc3)c(C)c12 (stereo unspecified) | 1% | 1.1% | . | 0%

Sorted by value in miR-21 reporter (smallest number first): five from the list above
SMILES | Rango release inh | Rango-impB inh | GLA inh pH 4.5 | miR-21 reporter
CCC(=O)N/N=C/c1ccc(OS(=O)(=O)c2ccccc2)cc1 | 28% | 0.8% | -9 | -25%
COc1ccc(CN(CC2CCC(C(=O)O)CC2)C(=S)Nc2cc(C)cc(C)c2)cc1 (stereo unspecified) | -1% | -2.0% | -5 | -16%
O=C(N/N=C1\C2CN3CCN(C2)CC1(c1ccccc1)C3)c1ccc(F)cc1 | -13% | 0.8% | 5 | -9%
Cc1nn(C(C)C(=O)N2CCCC2)c(=O)c2nn(-c3ccccc3)c(C)c12 (stereo unspecified) | 1% | 1.1% | . | 0%
CC(=O)Nc1nc(C)c(Oc2ccc(C)cc2)c(=O)[nH]1 | -25% | 0.2% | 12 | 4%

Carrying on.
SMILES | Rango release inh | Rango-impB inh | GLA inh pH 4.5 | miR-21 reporter
O=C(C1=C[C@@H](c2coc3ccccc3c2=O)C[C@@H](OCc2ccc(CO)cc2)O1)N1CCN(Cc2ccccc2)CC1 | -17% | -3.5% | -5 | -1%
CCN(CC)CCN1C(=O)C(=O)/C(=C(/O)c2c(C)[nH]c(C(=O)OC)c2C)C1c1ccc(OC)cc1 (stereo unspecified) | -28% | -5.7% | 2 | -2%
CCOC(=O)C1CCN(C(=O)c2ccc(OCC(=O)Nc3cccc(C(F)(F)F)c3)c(OC)c2)CC1 | 8% | -0.8% | . | .
CCOc1ccccc1NC(=O)CSc1n[nH]c(N)n1 | 17% | -1.4% | . | 1%
Cc1ccc2c(Cl)cc(Cl)c(OCC(=O)O)c2n1 | 14% | ? | -1 | -1%
O=C(NCCCN1CCCC1)Nc1ccc(F)cc1 | -8% | -1.9% | . | 0%
COc1ccc(/C=N/Nc2nc(N3CCCCC3)nc(N3CCCCC3)n2)cc1[N+](=O)[O-] | 1% | -0.7% | -8 | -6%
CCC1Oc2ccc(C)cc2N(CC(=O)N2CCCC2)C1=O (stereo unspecified) | 12% | 3.0% | . | 0%
O=C(NCc1ccco1)C(c1ccc(F)cc1)N(CC1CCCO1)C(=O)Cn1nnc2ccccc21 (stereo unspecified) | -7% | -0.2% | -5 | 0%
CCOC(=O)C1CCN(C(=O)CC2C(=O)N(Cc3ccccc3)C(C)c3nc4ccccc4n32)CC1 (stereo unspecified) | -11% | 0.9% | 1 | 1%
Oc1ccc(-c2nc(-c3ccc(F)cc3)c(-c3ccncc3)[nH]2)cc1 | 1% | ? | -2&-9 | .
CN(C)S(=O)(=O)c1cccc(NC(=O)COC(=O)c2ccc3c(c2)OCO3)c1 | 0% | -2.7% | -11 | 0%
CNC(=O)c1c[nH]c2ccc(S(=O)(=O)Nc3ccccc3F)cc2c1=O | -17% | -1.3% | . | 11%
Cc1csc(CN(C)C(=O)CC2C(=O)NCCN2Cc2ccc(F)c(F)c2)n1 (stereo unspecified) | -10% | 3.3% | . | 1%
COc1ccc(NC(=O)CN2CCN(CC(=O)Nc3ccccc3F)CC2)c(OC)c1 | 1% | -0.9% | 0 | 1%&-2%
Brc1ccc(C=Nc2ccc3c(c2)OCCOCCOCCO3)s1 | -2% | 1.0% | 4 | -3%
CC(C)(C)N1CC(C(=O)Nc2ccc(S(N)(=O)=O)cc2)CC1=O (stereo unspecified) | -2% | 0.5% | . | -1%
C=CCNC(=O)CCCCC(=O)NCC=C | -13% | 1.5% | -7 | -1%
COC(=O)c1c(NC(=O)c2ccn(C)n2)sc2c1CCC2 | 16% | -2.2% | . | -18%
C/C(=N\NC(=O)C(=O)Nc1cc(C)ccc1C)c1ccncc1 | -8% | 0.8% | -1 | -3%
CCN(CC)CCN(CC)Cc1ccccc1Br | 10% | -1.0% | 0 | -3%
CC(=O)N1c2ccc(S(=O)(=O)NCC3CCC(C(=O)NCc4ccco4)CC3)cc2CC1C (stereo unspecified) | 2% | -1.5% | . | 3%
COc1cc2oc3ccccc3c(=O)c2cc1OC | -17% | 1.1% | . | -26%
CCOc1ccc(Nc2oc(Cc3ccccc3)nc2C#N)cc1 | -11% | -0.4% | -7 | -65%
CCOC(=O)c1ccc(NC(=O)CC2S/C(=N/N=C3/NC(=O)CS3)NC2=O)cc1 (stereo unspecified) | 5% | -2.5% | 7 | 0%
COc1ccc(S(=O)(=O)N2CCCC(C(=O)NCCCn3ccnc3)C2)cc1OC (stereo unspecified) | 3% | 0.1% | . | -3%
Cc1ccccc1CNC(=O)C1CCCN(c2cnccn2)C1 (stereo unspecified) | -3% | 1.6% | . | -1%
Cn1cc(C(=O)NCC(=O)Nc2ccccc2Br)cn1 | -13% | -0.9% | . | .
Cc1ccc(Sc2ncccc2C(=O)O)cc1C | 3% | -1.8% | 5 | 0%
CCOC(=O)Cn1nc2sc3ccccc3n2c(=O)c1=O | 1% | 0.7% | -16 | -7%
CC(C)C(=O)Nc1ccc(-c2nnc(-c3ccccc3)o2)cc1 | 28% | -0.6% | . | -63%
COc1cccc(NC(=S)N(CCc2c(C)[nH]c3ccc(C)cc23)Cc2cccs2)c1 | 1% | -0.6% | 2 | 16%
